Assay outcomes (PubChem BioAssay)
GIV-Gai inh: inhibitors of GIV peptide binding to Galpha-i3, primary screen, biochemical, fluorescence polarization, FITC-GIV GBA peptide, rat Galphai3; percent of control (FP), % (test concentration not listed); 210,000 tested, 0.42% active; 90 min; stronger effect = lower value; scaled: aluminum fluoride 0%, vehicle 100%; Guanine nucleotide-binding protein G(i) subunit alpha-3 (Rattus norvegicus), P08753; AID 1224905, 2016;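 active = replicate mean at 85% of control or lower, very high polarization wells dropped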;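 also: wells of about 15 µL received 100 nL stock; the first replicate is given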
Target sequence (P08753 whole entry, looked up): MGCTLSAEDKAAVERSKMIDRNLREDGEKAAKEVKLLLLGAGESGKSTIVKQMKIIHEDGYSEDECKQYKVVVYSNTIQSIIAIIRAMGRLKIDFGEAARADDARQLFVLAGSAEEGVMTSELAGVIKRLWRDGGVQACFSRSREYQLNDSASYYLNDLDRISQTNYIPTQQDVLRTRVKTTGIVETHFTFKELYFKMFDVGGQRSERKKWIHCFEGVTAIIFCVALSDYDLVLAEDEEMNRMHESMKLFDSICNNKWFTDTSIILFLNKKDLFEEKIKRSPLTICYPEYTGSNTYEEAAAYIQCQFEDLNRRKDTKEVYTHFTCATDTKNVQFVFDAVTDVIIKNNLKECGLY
HCMV NEC inh: inhibitors of HCMV UL50-UL53 interaction, biochemical, HTRF | HCMV UL50-UL53 nuclear egress complex (human cytomegalovirus) | normalized percent inhibition | inhibition, % (no concentration beside the values) | 190,000 tested, 0.15% active | AID 1918969, 2023;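 active = both replicates at 50% or more, plus weaker picks with an unusually low signal ratio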;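 also: stock transfer was 100 nL into about 20 µL; 0% = negative control wells and 100% = wells with untagged competitor protein; inactives centre near -12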
Sa growth 42C: S. aureus growth inhibition at 42 and 30 °C, primary screen, LtaS inhibitor project, RN4220, two temperatures; OD600, 20 h, 42 °C; stronger effect = lower value; 170,000 tested, 0.53% active; relative growth, % (no concentration beside the values);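 active = growth at 42 °C up to 50% and 20 or more points under that at 30 °C, or under 10% at both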;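 also: 300 nL library stock went into each well; scaled to the means of positive and negative controls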
Sa growth 42C second temp: also measured in Sa growth 42C; calls as there; relative growth, %; measured here: growth at 30 °C;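 optical density after 20 h as mean of two plates; 100% = untreated growth and lower means inhibition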
* hit, by the source's call; · = not tested or not shown.

[1] Cc1ccc(-n2c(=O)c3c(cnn3C)n(CC(=O)Nc3cccc(C)c3)c2=O)cc1
[2] O=c1c(-c2ccccc2)coc2cc(OCc3ccccc3F)ccc12
[3] COC(=O)c1[nH]c2ccccc2c1C(Nc1ccc(C(=O)O)cc1)c1ccccc1 (stereo unspecified)
[4] O=C(NC1CCCCC1)c1ccc2c(c1)sc1nc(-c3ccccc3)cn12
[5] Cc1ccc(C)c(C(=O)COC(=O)c2n[nH]c3ccccc23)c1
[6] COc1ccc(-c2c(C(F)(F)F)oc3cc(OC(=O)C(C)C)ccc3c2=O)cc1OC
[7] CCCCNc1cc(N2CCN(C3CCCCC3)CC2)c2noc3c2c1C(=O)c1ccccc1-3
[8] CCNC(=O)c1cc(S(=O)(=O)N2CCCCC2)ccc1C
[9] CC1CCN(CC(=O)Nc2sccc2C#N)CC1
[10] CCOC(=O)c1cc2c(C)n(C)c(C)c2cc(C(=O)OCC)c1=O

Screen / compound no.	1	2	3	4	5	6	7	8	9	10
GIV-Gai inh	100	108	104	101	·	97	229	·	·	111
HCMV NEC inh	-3	·	·	·	-12	-24	-43	22	-11	-36
Sa growth 42C	107	103	115	99	82	·	104	93	111	·
Sa growth 42C second temp	92	94	58	87	89	·	84	101	91	·

[11] CCc1ccc(NC(=O)CSc2nc3nc(C)cc(C)n3n2)cc1
[12] O=C(CNS(=O)(=O)c1cccc2nsnc12)N1CCC(c2nc(-c3ccccc3)no2)CC1
[13] O=C(CN1CCCCC1)N1CCCC(c2nc3sc4c(c3c(=O)[nH]2)CCCC4)C1 (stereo unspecified)
[14] O=C(O)c1ccc(N2C(=O)c3[nH]nc(-c4ccccc4)c3C2c2cccc(F)c2)cc1 (stereo unspecified)
[15] COc1ccc(NS(=O)(=O)c2ccc3oc(SC/C(O)=C(\C#N)c4nc5ccccc5s4)nc3c2)cc1
[16] N#Cc1nc(-c2cccs2)oc1N1CCCC1
[17] Cc1c(C)n(C(=O)CSC(=S)N2CCOCC2)c2ccccc12
[18] O=S(=O)(Cc1ccccc1)/C1=C(\N2CCOCC2)CCCCCC1
[19] CCn1nccc1C1CCCN1S(=O)(=O)c1cccc(Cl)c1 (stereo unspecified)
[20] COc1ccc(NC(=O)Nc2nnc(N(CC(C)C)CC(C)C)s2)c(OC)c1

Screen / compound no.	11	12	13	14	15	16	17	18	19	20
GIV-Gai inh	106	101	104	105	·	109	100	108	97	103
HCMV NEC inh	-4	-96	-10	-26	-15	0	17	·	-23	1
Sa growth 42C	94	·	112	108	75	100	104	89	·	102
Sa growth 42C second temp	81	·	92	88	84	104	101	85	·	74

[21] Cc1ccc(C(=O)Nc2nnc(S(=O)(=O)N(C)Cc3ccc(F)cc3)s2)cc1
[22] CCOc1ccc(N(CC)c2nc(-c3cc(OC)ccc3OC)no2)cc1
[23] Cc1ccc(-c2nnn3c2nc(NCC(C)c2ccccc2)c2ccccc23)cc1 (stereo unspecified)
[24] CC1CC1c1ccc(CCC(=O)Nc2ncc(Cc3cccc(Cl)c3)s2)o1 (stereo unspecified)
[25] Cc1cccc(-n2c(C)nc3cc(C(=O)NCCC4=CCCCC4)ccc32)c1
[26] O=S(=O)(c1ccc(F)cc1)c1ccc(F)cc1
[27] Oc1c(C(c2ccc(Cl)cc2)N2CCOCC2)cc(Cl)c2cccnc12 (stereo unspecified)
[28] CN(C)CCCN(C(=O)c1ccc2c(c1)OCCO2)c1nc2ccc(Cl)cc2s1
[29] N#Cc1ccc(NC(=O)CCC(=O)c2cccs2)cc1
[30] CN(Cc1ccccc1)C(=O)c1cccc(-c2nnc(-c3ccccc3)o2)c1

Screen / compound no.	21	22	23	24	25	26	27	28	29	30
GIV-Gai inh	103	97	105	122	101	·	·	104	·	103
HCMV NEC inh	·	-5	-40	·	·	13	-23	4	0	-2
Sa growth 42C	108	97	110	74	94	102	118	·	119	99
Sa growth 42C second temp	86	102	91	24	52	99	74	·	89	95

An excerpt of these results, with two lines to a compound.
Results follow in this order: GIV-Gai inh, HCMV NEC inh, Sa growth 42C, Sa growth 42C second temp
14. O=C(O)c1ccc(N2C(=O)c3[nH]nc(-c4ccccc4)c3C2c2cccc(F)c2)cc1 (stereo unspecified)
 : 105, -26, 108, 88
21. Cc1ccc(C(=O)Nc2nnc(S(=O)(=O)N(C)Cc3ccc(F)cc3)s2)cc1
 : 103, ·, 108, 86
5. Cc1ccc(C)c(C(=O)COC(=O)c2n[nH]c3ccccc23)c1
 : ·, -12, 82, 89
30. CN(Cc1ccccc1)C(=O)c1cccc(-c2nnc(-c3ccccc3)o2)c1
 : 103, -2, 99, 95

More compounds
[31] c1ccc(NC2=NCCCCS2)cc1
[32] CCOc1cc2[nH]c(=O)n(CCCCC(=O)N3CCN(c4ccc(OC)cc4)CC3)c(=O)c2cc1OCC
[33] FC(F)(F)c1ccncc1-c1nnnn1-c1ccccc1Cl
[34] CCSc1ncc(Cl)c(C(=O)Nc2c(C)n(C)n(-c3ccccc3)c2=O)n1
[35] CC(C)(CC(=O)O)CC(=O)Nc1ccc(F)cc1
[36] CC1=C(C(=O)Nc2ccccc2)C(c2cccs2)n2nc(SCc3ccccc3F)nc2N1 (stereo unspecified)
[37] O=C1Nc2cc(C(=O)N3CCN(c4ccccn4)CC3)ccc2S/C1=C\c1ccccc1
[38] COc1ccc(NC(=O)c2ncn(-c3ccccc3)n2)cc1
[39] O=C1COc2ccc(C(=O)COC(=O)c3cc(S(=O)(=O)NCc4ccccc4)ccc3O)cc2N1
[40] COc1ccc(F)cc1CN1CCN(CC(=O)c2c(C)[nH]c3ccccc23)CC1

Screen / compound no.	31	32	33	34	35	36	37	38	39	40
GIV-Gai inh	107	97	106	106	105	104	104	101	·	·
HCMV NEC inh	-17	·	-2	-4	-14	-73	16	-7	0	-39
Sa growth 42C	88	87	121	·	98	120	108	·	90	78
Sa growth 42C second temp	83	81	94	·	86	90	104	·	89	89

Individual results from above:
COc1ccc(NC(=O)c2ncn(-c3ccccc3)n2)cc1 @ GIV-Gai inh = 101
CC1=C(C(=O)Nc2ccccc2)C(c2cccs2)n2nc(SCc3ccccc3F)nc2N1 (stereo unspecified) @ HCMV NEC inh = -73
O=C1COc2ccc(C(=O)COC(=O)c3cc(S(=O)(=O)NCc4ccccc4)ccc3O)cc2N1 @ HCMV NEC inh = 0

Arranged by length of the SMILES (smallest number first): three of the compounds above.
[35] CC(C)(CC(=O)O)CC(=O)Nc1ccc(F)cc1
[36] CC1=C(C(=O)Nc2ccccc2)C(c2cccs2)n2nc(SCc3ccccc3F)nc2N1 (stereo unspecified)
[39] O=C1COc2ccc(C(=O)COC(=O)c3cc(S(=O)(=O)NCc4ccccc4)ccc3O)cc2N1

Screen / compound no.	35	36	39
GIV-Gai inh	105	104	·
HCMV NEC inh	-14	-73	0
Sa growth 42C	98	120	90
Sa growth 42C second temp	86	90	89

Continuation.
[41] Cc1cn2c(=O)cc(COc3ccc(NC(=O)c4ccccc4C)cc3)nc2s1
[42] CCCOC(=O)c1c(NC(=O)c2nc3ncccn3n2)sc(C(N)=O)c1C
[43] CCNCC(=O)Nc1nnc(-c2ccccc2)o1
[44] O=C1C(c2ccc(F)cc2)N(CCc2ccccc2)C(=O)CN1C1CCCCC1 (stereo unspecified)
[45] O=C(CCC1CCCC1)c1c(O)c2ccccc2oc1=O
[46] CCOC(=O)C1=C(CN2CCCCC2)NC(=O)NC1c1ccc(OC)cc1 (stereo unspecified)
[47] CCSc1nc2sc3c(c2c(=O)n1-c1ccccc1)CC(C(C)C)OC3 (stereo unspecified)
[48] Cc1nn(-c2ccc(F)cc2)c(Cl)c1C(=O)N1CCN(c2ncccn2)CC1
[49] CC1CN(C(=S)c2ccccc2)CC(C)O1 (stereo unspecified)
[50] CCOc1ccc(NS(=O)(=O)c2cc(Br)cc3c2N(C(=O)C2CC2)CC3)cc1

Screen / compound no.	41	42	43	44	45	46	47	48	49	50
GIV-Gai inh	102	99	·	102	106	110	97	·	97	100
HCMV NEC inh	20	-60	-8	·	9	·	-13	-16	1	-8
Sa growth 42C	102	90	88	106	21	104	·	110	105	94
Sa growth 42C second temp	94	88	91	97	23	95	·	91	86	87

[51] CCOC(=O)c1ccc(N=C2N=C(N)c3ccccc32)cc1
[52] c1ccc2oc(SCc3nc4c5c6c(sc5ncn4n3)CCCCC6)nc2c1
[53] CCC(C)NC(=O)Cn1nc(C)cc1-c1ccco1 (stereo unspecified)
[54] Cc1ccc(Cn2c(CNS(=O)(=O)c3ccc(Cl)s3)nc3cccnc32)cc1
[55] COC(=O)Cn1c(=O)c2c(nc3n2CCCN3c2ccccc2)n(C)c1=O
[56] CN(Cc1ccccc1)C(=O)CSc1ncnc2ccccc12
[57] CC1(C)CC(NC2CCCCC2)CC(C)(C)N1
[58] CCOC(=O)N1CCN(C(=O)CCn2nc(-c3ccc(Cl)cc3)ccc2=O)CC1
[59] NCCCC(=O)N1c2ccccc2Sc2ccccc21
[60] CCCNC(=O)CCc1c(C)n(CC)c2cc(-c3ccccc3OC)nn2c1=O

Screen / compound no.	51	52	53	54	55	56	57	58	59	60
GIV-Gai inh	·	98	102	107	103	·	·	107	108	104
HCMV NEC inh	-60	-22	1	·	-28	-45	-7	·	-34	4
Sa growth 42C	102	·	90	106	·	95	91	120	91	94
Sa growth 42C second temp	93	·	84	101	·	82	92	75	82	89

[61] O=C(CC1Sc2ccccc2NC1=O)OCc1nc2scc(-c3ccco3)c2c(=O)[nH]1 (stereo unspecified)
[62] CC1(C)CC(=O)C(CC(=O)NC(=O)NCc2ccccc2)=C(O)C1
[63] CC1CCCN(Cn2nnc3ccccc3c2=O)C1 (stereo unspecified)
[64] CN(C)/C=C1\CCCc2ccccc2C1=O
[65] CCOc1nnc(-c2ccc(C)cc2)c2ccccc12
[66] COc1cccc(-c2nn(C)c3sc(C(=O)NCCc4cccc(C)c4)cc23)c1
[67] O=C(O)/C=C/C(=O)NCc1csc2ccccc12
[68] COc1ccc(N2CCN(C(=O)Cn3cnc4nc5c(cc4c3=O)CCCC5)CC2)cc1
[69] NNc1ccc2c(C(F)(F)F)cc(C(F)(F)F)nc2n1
[70] O=C(CSc1nc(-c2cccs2)nc2ccccc12)N1CCNC1=O

Screen / compound no.	61	62	63	64	65	66	67	68	69	70
GIV-Gai inh	·	·	·	104	105	114	100	105	109	·
HCMV NEC inh	-40	-24	-27	-46	-29	-9	-10	·	-48	-20
Sa growth 42C	80	116	99	87	·	·	102	83	·	84
Sa growth 42C second temp	95	91	98	87	·	·	101	88	·	91

[71] CCn1c(CCNC(=O)C2CCCO2)nnc1SC (stereo unspecified)
[72] CN(C)/C=C1/C=C(c2ccccc2)OC1=S
[73] Cn1nc(C(=O)N2CCOCC2)cc1C(=O)N1CCOCC1
[74] O=C(CBr)c1ccc2ccccc2c1
[75] O=C(Cc1ccc2c(c1)CCCC2)N1CCN(c2ncccn2)CC1
[76] CC1CCN(C(=O)Cn2cc(C(=O)C3CC3)c3ccccc32)CC1
[77] Cc1ccc(S(=O)(=O)NC(C)C(=O)N2CCN(c3ccc(-c4noc(C)n4)cc3)CC2)cc1 (stereo unspecified)
[78] CCOC(=O)c1nc(C)sc1-c1ccn[nH]1
[79] CCOC(=O)c1cc(-c2ccc(OC)cc2)n(CCC(=O)Nc2cccc(C)c2C)c1C
[80] COc1ccc(CN(Cc2ccco2)c2cnc(S(C)(=O)=O)nc2C(=O)Nc2ccc(C)c(C)c2)cc1

Screen / compound no.	71	72	73	74	75	76	77	78	79	80
GIV-Gai inh	101	111	·	102	·	103	106	103	98	100
HCMV NEC inh	4	·	-2	-42	-8	-12	-38	-1	·	-26
Sa growth 42C	81	72	78	·	101	100	·	101	102	99
Sa growth 42C second temp	104	56	94	·	94	94	·	103	85	91

[81] O=C(NO)c1nc[nH]c1C(=O)NO
[82] CC1=NN(C(=O)CC#N)C(O)(c2ccccc2)C1 (stereo unspecified)
[83] NC(=O)c1c(NC(=O)C2CCCN(C(=O)C3CCCC3)C2)sc2c1CCCC2 (stereo unspecified)
[84] O=C(CSc1nnc(COc2ccccc2)o1)NC1CCCCC1
[85] COc1ccc(NC(=O)CC2C(=O)N(c3ccccc3)C(=O)N2CCC2=CCCCC2)cc1 (stereo unspecified)
[86] COc1ccc(NC(=O)c2nnc(CCCC(=O)NCc3cccnc3)s2)cc1
[87] COC(=O)c1cc(C)nc2c1c(=O)nc(SCc1ccccc1C)n2C1CC1
[88] Cc1ccc(C)c(N2CCN(S(=O)(=O)c3ccc4c(c3)n(C)c(=O)c(=O)n4C)CC2)c1
[89] O=C(O)c1cc2sccc2s1
[90] Cc1ccc(NS(C)(=O)=O)c(C)c1

Screen / compound no.	81	82	83	84	85	86	87	88	89	90
GIV-Gai inh	108	101	107	105	98	101	105	101	105	101
HCMV NEC inh	-16	6	-19	0	-16	-38	·	-2	-8	-22
Sa growth 42C	83	97	·	96	95	·	88	101	105	93
Sa growth 42C second temp	86	103	·	78	84	·	79	88	86	90
